# A1 inh – inhibitors of the anti-apoptotic protein A1, read as caspase activation | MEF A1-2A-BIM cells, Caspase-Glo 3/7 luminescence, 3 h; percent of clofoctol response, vehicle zero | caspase activation, % (no concentration beside the values) | 330,000 tested, 0.066% active | AID 2462;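 active means over half of replicate activation scores above 10%, or exactly half above 10 with the replicate mean above 10; inconclusive means replicate mean below 10 yet half the replicates above 10; inactive means over half of replicates below 10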;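 further: wells of about 30 µL received 50 nL stock; many hits fall short of the cut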
# MLL AF4-AF9 inh – MLL-AF4/AF9 protein interaction inhibition; AlphaScreen, biotin-AF4 peptide binding to FLAG-AF9; inhibition, % at 10 µM; 350,000 tested, 0.47% active;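 active means every replicate reaching a set inhibition limit, whatever the replicate mean, cut at about 25% in these data; inconclusive means mean inhibition reaches that limit but some replicates miss it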;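 further: 0% = plate neutral control median and 100% = total signal loss; the record names both 10 and 1 µM as test concentration; the first replicate is given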
# Target sequence (P42568 whole entry, looked up): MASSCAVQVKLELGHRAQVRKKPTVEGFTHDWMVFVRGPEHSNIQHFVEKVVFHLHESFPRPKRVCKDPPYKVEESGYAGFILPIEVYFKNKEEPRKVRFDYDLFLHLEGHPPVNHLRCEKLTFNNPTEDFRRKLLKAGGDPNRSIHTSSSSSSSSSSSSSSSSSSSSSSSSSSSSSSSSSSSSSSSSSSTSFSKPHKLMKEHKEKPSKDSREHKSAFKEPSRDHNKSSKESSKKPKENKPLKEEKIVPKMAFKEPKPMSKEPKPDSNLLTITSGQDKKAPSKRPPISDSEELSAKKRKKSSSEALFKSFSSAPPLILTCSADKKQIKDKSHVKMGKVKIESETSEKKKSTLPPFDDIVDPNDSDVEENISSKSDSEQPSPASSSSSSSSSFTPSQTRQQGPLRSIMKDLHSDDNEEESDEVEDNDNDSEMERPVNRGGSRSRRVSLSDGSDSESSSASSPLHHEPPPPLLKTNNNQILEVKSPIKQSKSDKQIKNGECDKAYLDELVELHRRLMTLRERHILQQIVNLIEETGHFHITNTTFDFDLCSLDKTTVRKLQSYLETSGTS
# FGF22 binding – shifts melting point of recombinant human FGF22. recombinant FGF22 thermal shift, SYPRO orange fluorescence; percent of sucrose octasulfate shift, DMSO zero. Q9HCT0. AID 651658. 340,000 tested, 1.5% active. calls only at 9.99 µM;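 active means melting point raised past a set limit in the mean and every replicate; inconclusive means no clear call; three in four hits are not shown here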
# Target sequence (Q9HCT0 whole entry, looked up): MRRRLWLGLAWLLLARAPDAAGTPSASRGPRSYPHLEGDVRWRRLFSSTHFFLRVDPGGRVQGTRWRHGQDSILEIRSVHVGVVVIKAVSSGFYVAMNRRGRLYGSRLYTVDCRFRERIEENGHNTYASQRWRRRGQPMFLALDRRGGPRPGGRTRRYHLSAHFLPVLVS
# UCH37 inh – inhibitors of human deubiquitinating enzyme UCH37; Q9Y5K5; purified proteasome/UCH37, Ub-AMC cleavage fluorescence; inhibition, % (concentration not given with the values); 330,000 tested, 0.33% active;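 active means mean of two replicates above 20%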;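 further: 0% = compound-free wells with enzyme and 100% = wells lacking proteasome; stock transfer was 100 nL into about 20 µL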
# Target sequence (Q9Y5K5 whole entry, looked up): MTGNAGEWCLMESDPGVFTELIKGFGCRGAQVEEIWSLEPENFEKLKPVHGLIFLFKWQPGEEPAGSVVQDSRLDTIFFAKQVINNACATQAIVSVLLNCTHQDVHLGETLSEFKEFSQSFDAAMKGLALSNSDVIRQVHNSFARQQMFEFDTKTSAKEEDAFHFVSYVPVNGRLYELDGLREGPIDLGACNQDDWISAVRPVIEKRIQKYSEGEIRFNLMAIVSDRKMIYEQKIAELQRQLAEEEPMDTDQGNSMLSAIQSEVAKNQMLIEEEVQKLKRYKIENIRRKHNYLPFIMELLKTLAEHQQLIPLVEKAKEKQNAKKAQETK
#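 Signal – fluorescence, ex 355 nm, em 460 nm · System – Proteasome-bound UCH37 · Input – 0.15 nM proteasome as dispensed · Timing – 30 min preincubation with enzyme, 25 min cleavage at room temperature · Read-out basis – percent inhibition of cleavage signal versus uninhibited and no-proteasome wells · Medium – Tris-HCl pH 7.4 with ATP-MgCl2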
# Beta apoptosis – beta cell apoptosis inhibition; protection from apoptosis, % (concentration not given with the values); INS-1E cytokine-induced death, ATP luminescence, 48 h; percent of positive-control rescue, neutral wells zero; 300,000 tested, 0.8% active;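 active means all replicates at 75% or more, or half of them and the mean; inconclusive means half reach 75% but not the mean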;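 further: 0% = cytokine-treated negative control wells and 100% = positive control rescue; higher means more ATP so stronger rescue from cytokine killing; wells of about 40 µL received 100 nL stock; the first replicate is given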
# E coli growth – E. coli growth inhibition; OD600 absorbance (test concentration not listed); 330,000 tested, 0.21% active; Escherichia coli growth, OD600, 23 h; active compounds read low;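 active means OD600 absorbance below the run mean of sample wells minus 3.6 SD, in any replicate, cut at about 0.56 in these data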;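 further: stock transfer was 300 nL into about 60 µL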
# T cruzi repl – T. cruzi replication inhibition. inhibition, % (concentration not given with the values). T. cruzi beta-gal in NIH3T3, luminescence, 90 h. 300,000 tested, 1.4% active;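 active means mean inhibition across valid replicates above about 55%, limit read from the data; inconclusive means mean below that limit but half or more replicates reach it; inactive means mean below it, under half of replicates reach it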;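 further: signal also drops with host cell toxicity which is not excluded here; 0% = plate median of DMSO wells and 100% = zero luminescence signal; higher percent means less beta-gal luminescence so fewer parasites; stock transfer was 50 nL into about 50 µL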
# rRNA inh HTS – inhibitors of bacterial rRNA selective over humanized ribosomes; E. coli WT GFP vs humanized-ribosome RFP mutants, fluorescence, 24 h; active compounds read low; DMSO median 0, no signal -100; GFP signal change (wild-type ribosome), % (concentration not given with the values); 350,000 tested, 1.6% active; AID 720706;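 active means significant combined selectivity score with lowered wild-type GFP, culture density cut under 30%, mutant RFP and density less affected; inactive means any of these conditions unmet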; further: one replicate is shown; some compounds called inactive have numbers as strong as hits
# rRNA inh HTS OD600 – also measured in rRNA inh HTS; calls as there; OD600 change, %; measured here: OD600 growth;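 optical density of the mix in the first replicate; 0 = DMSO median and -100 = no signal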
# rRNA inh HTS RFP – further read-out of rRNA inh HTS, marked with its call; RFP signal change, %; measured here: RFP humanized mutant strains;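 first replicate; 0 = DMSO median and -100 = no signal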
# The depositor's hits bear a star; i = inactive; ? = inconclusive; . = not tested or not shown. This is a subset; the hit share may differ from the screen's.
smiles	A1 inh	MLL AF4-AF9 inh	FGF22 binding	UCH37 inh	Beta apoptosis	E coli growth	T cruzi repl	rRNA inh HTS	rRNA inh HTS OD600	rRNA inh HTS RFP
CC[C@]12c3[nH]c4cc(CCC(=O)N(C)C)ccc4c3CCN1C(=O)[C@@H](CC(=O)NCCC1=CCCCC1)C[C@@H]2C(=O)N1CCN(C(=O)c2ccco2)CC1	.	1.2	i	1.6	.	0.72	.	4	2	8.2
O=C(Nc1ccccn1)C12CC3CC(CC(C3)C1)C2	1.3	0.4	i	-1.4	-3	0.68	0	-6	-7	-0.6
CS(=O)(=O)N(CC(=O)Nc1ccccc1C(=O)N1CCOCC1)c1ccc(F)c(Cl)c1	-0.9	-14	i	4.0	6	0.7	-8	3	8	0.8
Cc1ccc(S(=O)(=O)C(NC(=O)c2ccccc2)=C(Cl)Cl)cc1	0.5	.	.	0.8	-7	0.68	2	.	.	.
Cc1ccc(-c2nnc(SCC(=O)n3c4c(c5ccccc53)CCCC4)o2)cc1	0.2	.	.	-0.4	-7	0.7	1	.	.	.
O=C1CC(NC(=O)C(F)(F)F)=NN1c1ccccc1	1.3	-0.8	i	0.7	-10	0.69	-17	19	19	-0.3
CCCNc1c(NS(=O)(=O)c2ccc(C)c(C)c2)c(=O)oc2ccccc12	.	-1.6	i	-30	.	0.68	12	1	-2	-4.1
Cc1cc(NC(=O)c2c([N+](=O)[O-])cnn2C)no1	0.7	.	.	-3.2	-3	0.75	-23	.	.	.
CCOC(=O)Nc1ccc2c(CN3C(=O)NC(CC)(CC)C3=O)cc(=O)oc2c1	-0.1	.	.	i	1	0.75	1	.	.	.
COc1ccc(OCCOCCOc2ccc(C)cc2[N+](=O)[O-])cc1	-0.2	.	.	2.7	-5	0.72	-3	.	.	.
O=C(Oc1cccc(N2C(=O)C3C4c5ccccc5C(c5ccccc54)C3C2=O)c1)c1ccco1 (centres undefined)	0.2	.	.	2.9	-5	0.67	-14	.	.	.
Cc1ccc(NC(=S)N2CCCC(CO)C2)c(C)c1 (centres undefined)	0.8	-4.1	i	.	-2	.	3	5	1	2.1
Cc1ccc(S(=O)(=O)N2CCN(S(=O)(=O)c3ccccc3Br)CC2)cc1	.	0.1	i	1.2	.	0.72	.	18	20	0.0
CN(CC(=O)NNC(=O)CNC(=O)c1ccccc1Cl)S(=O)(=O)c1ccc(Cl)cc1	1.3	0.1	i	3.1	0	0.74	-10	3	0	-2.3
COc1ccc(-n2nc(C(=O)NCC(=O)NCc3ccco3)c3ccccc3c2=O)cc1Cl	0.2	.	.	-75	0	0.72	-12	.	.	.
O=C(CSc1nnc(-c2ccc(OC(F)F)cc2)o1)NCc1cccs1	-0.3	.	.	6.2	-5	0.78	-1	.	.	.
Cc1ccc(NC2SC(=O)N(Cc3cccc(C(=O)O)c3)C2=O)cc1 (centres undefined)	?	.	.	0.3	-8	0.68	3	.	.	.
Cc1ccc(-c2nnn3c2nc(Cl)c2ccccc23)cc1	.	-0.3	i	.	.	.	-11	18	10	-4.7
CC1CN(Cc2nc3c(c(=O)n(C)c(=O)n3C)n2Cc2cccc(Cl)c2)CC(C)O1 (centres undefined)	0.4	-6.4	i	1.7	-3	0.69	3	2	7	-1.9
CCOc1cc(C(=O)Nc2ncccn2)cc(OCC)c1OCC	-0.1	.	.	0.0	4	0.73	-4	.	.	.
CCOc1cc(OCC)nc(S(C)(=O)=O)n1	-0.8	.	.	5.3	-7	0.71	9	.	.	.
COC(=O)c1ccc(NC(=O)CSc2nnc(COc3ccc4c(c3)CCCC4)o2)cc1	0.3	6.0	i	0.8	-5	0.73	11	8	4	1.3
COc1ccc(S(=O)(=O)N2CCOC23CCN(S(=O)(=O)c2ccc(Cl)cc2)CC3)cc1	1.3	-0.6	i	-1.1	11	0.71	13	15	11	3.9
CCCC(C)C1c2c(c(C)c(C)oc2=O)Oc2c(C)c(C)oc(=O)c21 (centres undefined)	2.2	-3.5	i	1.9	5	.	.	-41	-66	-2.8
CCCC1C2C(=O)N(c3ccccc3)C(=O)C2ON1c1ccccc1 (centres undefined)	1.3	.	.	3.6	-4	0.7	-4	.	.	.
COc1ccc(CC(=O)OCC(=O)N2CCCc3ccccc32)cc1OC	-1.0	-1.8	i	5.1	-1	0.69	6	0	0	1.0
COc1ccc(C2=CSC3=NCCN23)cc1Br	0.0	4.3	i	5.7	.	0.6	-10	3	2	0.8
Cc1cc(C)n2nc(C(=O)OCCOc3ccc(F)cc3)nc2n1	-1.1	.	.	0.7	4	0.74	6	.	.	.
CCCn1cc(S(=O)(=O)CC(=O)NC2CCCCC2)c2ccccc21	0.6	.	.	3.8	.	0.72	7	.	.	.
COc1ccc(Nc2nc(N)c([N+](=O)[O-])c(NC3CCCCC3)n2)cc1	-0.6	0.8	i	8.0	3	0.71	18	-5	-32	-7.9
NC(=O)c1ccc(OCC2CCCO2)cc1 (centres undefined)	0.5	-2.1	i	-0.1	0	0.69	-2	3	10	-1.1
CCOC(=O)c1cnc(SC)nc1NCCOC	-0.4	-0.2	i	-2.5	1	0.7	-7	3	-12	-7.9
O=C(CCn1c(=S)oc2ccccc21)NCCC1=CCCCC1	0.4	-1.7	i	2.7	2	0.73	-2	3	2	8.2
CN(C)S(=O)(=O)c1ccc(N2CCCC2)c(C(=O)Nc2ccccc2)c1	0.6	0.2	i	3.8	-9	0.69	5	10	3	1.3
CCn1c(SCC(=O)N/N=C/C=C/c2ccccc2[N+](=O)[O-])nnc1-c1ccccc1	-1.7	6.3	i	.	.	.	-4	.	.	.
Nn1c(Cc2ccc(F)cc2)n[nH]c1=S	0.8	-3.5	i	3.5	-2	0.68	-5	15	15	0.8
CSCCC(NC(=O)COc1ccccc1)C(=O)N1CCCCC1 (centres undefined)	1.2	0.5	i	-0.3	2	0.67	-3	8	10	-0.7
Cc1cc(=O)[nH]c(N/N=C/c2cccc(Br)c2)n1	0.7	?	i	.	0	.	-6	-9	1	0.7
COc1cccc(NC(=O)CCC2CCN(Cc3nccs3)CC2)c1	-0.8	-0.3	i	1.8	-5	0.68	15	8	16	1.1
Cc1csc(/N=C/c2ccc([N+](=O)[O-])cc2)n1	0.3	4.7	i	.	0	.	.	5	2	-0.6
NNC(=O)c1oc2nc(-c3ccccc3)cc(-c3ccccc3)c2c1N	0.0	1.4	i	-4.0	11	0.72	17	-4	5	5.3
COc1ccc(NC(=O)CN(C)CC(=O)Nc2ccc(Cl)cc2[N+](=O)[O-])cc1	0.6	1.9	i	1.9	-5	0.7	3	14	6	-0.9
CC(C)CNC(=S)N1CCC(C(=O)c2ccc3c(c2)OCCO3)CC1	0.8	-1.3	i	-0.7	5	0.67	0	-17	-15	-3.6
Cc1nn(C)cc1C(C(=O)NC1CCCCC1)N(C(=O)Cc1cccs1)c1ccc(Cl)cc1 (centres undefined)	1.0	-0.5	i	3.3	.	0.75	-9	18	12	-4.3
Cn1c(=O)oc2cc(S(=O)(=O)Nc3cccc(F)c3)ccc21	-0.2	-4.0	i	2.2	-1	0.68	-18	6	7	1.4
CCN(CC)CCCNCC(=O)Nc1ccc2c(c1)CCC2	-0.4	-0.6	i	4.9	-5	0.71	8	15	13	1.3
CC(C)(c1ccc(O)c([N+](=O)[O-])c1)c1ccc(O)c([N+](=O)[O-])c1	.	-0.2	i	7.0	.	0.71	.	-8	-5	-0.6
CC(C)OC(=O)Cn1c(=O)oc2ccccc21	0.1	.	.	4.9	-6	0.66	-8	.	.	.
CN1C(=S)SC(C)(C)C1(C)NO (centres undefined)	-0.1	.	.	3.2	-8	0.72	-11	.	.	.
COC(=O)/C(C#N)=C/c1c(N2CCN(C)CC2)nc2ccccn2c1=O	2.5	-0.6	i	1.7	0	0.66	-2	12	20	1.3
CCc1ccc(-n2cnc3cc(C(=O)NCC(OC)OC)ccc32)cc1	0.8	-1.2	i	-1.2	-1	0.67	-14	9	0	2.5
CCOC(CNC(=O)Cn1nc(C)c2ccccc21)OCC	-0.9	-3.9	i	4.5	-4	0.68	1	5	10	1.8
CCS(=O)(=O)c1nc(S(=O)(=O)c2ccc(C)cc2)c(NCCCN(C)C)s1	0.4	-2.9	i	1.6	-5	0.67	14	8	7	-0.8
COc1ccc(NC(=O)N2CCN(c3nc4ccccc4n3C(C)C)CC2)cc1	-0.3	-2.6	i	-4.0	5	0.63	-5	14	5	1.4
Cc1onc(-c2ccccc2Cl)c1C(=O)NCc1ccc2c(c1)cc(C)n2C	0.7	-5.4	i	4.2	-3	0.75	32	0	9	8.5
CC(C)c1ccc(S(=O)(=O)Nc2ccc(SC(F)F)cc2)cc1	1.3	.	.	-16	-7	0.67	13	.	.	.
O=C(Nc1cccc(Cl)c1N1CCOCC1)c1cc([N+](=O)[O-])ccc1N1CCOCC1	-0.4	3.8	i	4.3	.	0.7	11	8	5	-1.5
O=C(Nc1ccccc1-c1nnc(SCc2ccc(Cl)cc2)o1)c1ccccc1	.	.	.	-6.2	4	0.75	71*	.	.	.
CC(=O)NCC(=O)OCC(=O)Nc1nc(-c2ccccc2)cs1	0.7	-3.2	i	1.4	-2	0.66	-1	5	4	1.2
N#CCCn1cc(C(=O)Nc2ccccc2Br)c(-c2cccs2)n1	0.7	-1.0	i	2.2	-8	0.69	3	-7	-9	0.7

# Remaining list, next part:
smiles	A1 inh	MLL AF4-AF9 inh	FGF22 binding	UCH37 inh	Beta apoptosis	E coli growth	T cruzi repl	rRNA inh HTS	rRNA inh HTS OD600	rRNA inh HTS RFP
CCN(CC)S(=O)(=O)c1ccc(O)c(NC(=O)CN2CCc3ccccc3C2)c1	0.8	-2.2	i	3.7	6	0.67	-4	13	16	-2.0
COc1ccc(N=c2oc3ccccc3cc2C(=O)Nc2ccccn2)cc1OC	0.6	.	.	4.9	10	0.7	-9	.	.	.
Cc1ccc(S(=O)(=O)N2CCCCC2)cc1NC(=O)COC(=O)c1ccccc1F	-1.6	-8.9	i	0.0	-2	0.72	8	-2	13	4.0
CC1CCN(C(=O)c2cc(-c3ccc4c(c3)OCO4)on2)CC1	-3.9	-1.7	i	2.6	-3	0.68	-3	-10	-16	0.3
CC(=O)c1cccc(NC(=O)c2cccc(S(=O)(=O)N(C)C)c2)c1	0.0	.	.	0.1	.	0.77	-11	.	.	.
CCOc1ccc(S(=O)(=O)N(CC(=O)N2CCC(C(N)=O)CC2)c2ccc(F)cc2)cc1	-0.7	-2.0	i	5.7	-6	0.72	-7	6	2	0.0
CN(C)S(=O)(=O)N1CCC(n2nccc2NC(=O)CCCc2ccccc2)CC1	-0.5	-0.3	i	2.2	-3	0.65	-7	4	3	-1.3

# Screening data: PubChem BioAssay, several laboratories
